Compound activity deposited in PubChem BioAssay by ICCB-Longwood Screening Facility, Harvard Medical School.
MenB inh = blocks the Mycobacterium tuberculosis MenB enzyme | P9WNP5 | MenB enzyme assay, absorbance read-out; some hits fall short of the stated cut | inhibition, %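 (about 12 µg/mL by stock and volumes)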 | 0.43% of 100,000 active;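 active means mean of two replicates above 30%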;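 further: 0% = no compound and 100% = wells with inactive enzyme; the first replicate is given; strong numbers were not always called active; inactives centre near -10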
Target sequence (P9WNP5 whole entry, looked up): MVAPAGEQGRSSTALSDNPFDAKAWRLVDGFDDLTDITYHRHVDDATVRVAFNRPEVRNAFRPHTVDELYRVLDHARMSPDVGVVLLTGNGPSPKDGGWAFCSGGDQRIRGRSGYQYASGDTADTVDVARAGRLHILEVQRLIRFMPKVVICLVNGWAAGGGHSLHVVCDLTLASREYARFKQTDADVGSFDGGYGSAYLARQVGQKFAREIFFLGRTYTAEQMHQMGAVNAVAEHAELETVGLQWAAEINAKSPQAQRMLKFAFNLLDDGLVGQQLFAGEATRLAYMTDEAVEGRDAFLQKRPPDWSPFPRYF
PV pol inh = poliovirus RNA polymerase inhibition; poliovirus polymerase elongation, fluorescence polarization; stronger effect = lower value; P03300; 0.66% of 150,000 active; % elongation, % (compound at 16.7 µg/mL); in the data active means % elongation below about 90%; further: some results filed as inactive read as strong as hits
Mtb MbtI inh = blocks the Mycobacterium tuberculosis siderophore enzyme MbtI. inhibition, %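 (about 17 µg/mL by stock and volumes)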. purified MbtI enzyme, fluorescence intensity read-out. 0.89% of 100,000 active;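 active means above 50% in both replicates, above 80% if mildly self-fluorescent; inactive means the rest, strongly fluorescent compounds included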;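 further: 0% = mean of negative and 100% = mean of positive controls; one replicate is shown; some compounds called inactive have numbers as strong as hits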
Target sequence (P9WFX0 whole entry, looked up): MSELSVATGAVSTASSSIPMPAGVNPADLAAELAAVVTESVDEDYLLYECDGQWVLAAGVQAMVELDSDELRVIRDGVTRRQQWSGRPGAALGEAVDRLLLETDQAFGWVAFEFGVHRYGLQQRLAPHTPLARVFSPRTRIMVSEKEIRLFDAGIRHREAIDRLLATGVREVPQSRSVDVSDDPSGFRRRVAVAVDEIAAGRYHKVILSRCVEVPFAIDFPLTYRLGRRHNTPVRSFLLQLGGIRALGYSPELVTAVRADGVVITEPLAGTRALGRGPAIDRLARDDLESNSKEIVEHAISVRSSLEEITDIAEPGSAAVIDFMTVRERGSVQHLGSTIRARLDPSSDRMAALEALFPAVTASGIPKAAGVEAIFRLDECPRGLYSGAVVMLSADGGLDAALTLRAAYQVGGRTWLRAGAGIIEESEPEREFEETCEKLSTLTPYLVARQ
PV pol inh intensity = further read-out of PV pol inh, marked with its call; % elongation; measured here: total intensity read-out; formula for this scale not given here;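 total fluorescence in place of polarization; lower means less elongation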
* hit, by the source's call; . = not tested or not shown; & = joins results of further samples.

SMILES | MenB inh | PV pol inh | PV pol inh intensity | Mtb MbtI inh
O=C(CN(CCO)CC(=O)Nc1ccc(C(F)(F)F)cc1)Nc1ccc(C(F)(F)F)cc1 | -17 | 99 | 98 | -1
CCOc1ccccc1C(=O)NC1CC2CCCC(C1)N2Cc1nnnn1Cc1ccco1 (stereo unspecified) | 6 | 102 | 102 | -4
COC(=O)c1cc2occc2n1C | -7 | 103 | 99 | 16
Cc1nc(C)c(C(=O)N/N=C/c2ccc(O)cc2O)cc1C(=O)N/N=C/c1ccc(O)cc1O | -40 | 101 | 102 | 5
Fc1cc2c(c(CSc3nc4ccccc4s3)c1)OCOC2 | -5 | 101 | 104 | -11
Cc1ccsc1C(=O)OC1CCOC1=O (stereo unspecified) | 1 | 102 | 100 | -7
Nc1cc(-c2ccccc2)nn1Cc1ccc(Cl)cc1 | -40 | 107 | 102 | .
COc1cccc(CNC(=O)C(C)N2Cc3ccccc3C2=O)c1 (stereo unspecified) | 2 | 99 | 100 | -17
CCOC(=O)c1c(-n2c(C)cc(/C=C3/C(=O)NC(=O)N(CC)C3=O)c2C)sc2c1CCCC2 | -20 | 90 | 117 | -3
O=C1NC(c2cccc(F)c2)=N/C1=C/c1cc2c(cc1Cl)OCO2 | -89 | 98 | 106 | 7
N#CNC1=NCN(C2CCCCC2)CN1 | -9 | 103 | 106 | -10
CCc1[nH]nc2c1C(C1C=CCCC1)C(C#N)=C(N)O2 (stereo unspecified) | 1 | 99 | 101 | -21
Cc1ccc(S(=O)(=O)N2CCCC(c3nnc4n3-c3ccccc3SC4)C2)cc1 (stereo unspecified) | -13 | 105 | 110 | -6
Cc1cccc(COc2nn[nH]n2)c1 | -6 | 102 | 105 | -11
CN1CC[C@@]2(C)c3cc(O)ccc3N(C)C12 (stereo partly specified) | -2 | 99 | 100 | 61
O=C(Nc1ccncc1)c1c(Cl)nc2sccn12 | . | 101 | 105 | 5
O=C(/C=C/c1ccccc1)NCc1n[nH]c(=O)c2ccccc12 | -19 | 107 | 109 | 4
O=C(O)CCC(=O)Nc1ccccc1O | 34 | 99 | 109 | -2
Cc1nc2nc(N)nn2c(C)c1CC(=O)NC(C)c1ccccc1 (stereo unspecified) | -12 | 105 | 105 | 104
O=C(O)CCC(=O)N1CCC(Oc2nnnc3ccccc23)CC1 | -18 | 101 | 105 | -8
COc1ccc(CCNc2c[nH]c(=O)[nH]c2=O)cc1OC | -13 | 99 | 102 | -5
N#CCCn1c(SCC(=O)NCC23CC4CC(CC(C4)C2)C3)nc2ccccc21 | -14 | 107 | 101 | 4
C[N+]1(CCn2ccc3ccccc32)CCCCC1 | -10 | 100 | 100 | 10
CCOC(=O)c1c(CN2CCC(C)CC2)oc2ccc(OC)cc12 | -1 | 101 | 102 | 7
COc1ccc(-n2c3nc4ccccc4nc3c3c(=N)oc(C)nc32)cc1 | -28 | 105 | 105 | -1

Record cards, as listed above.
N#CNC1=NCN(C2CCCCC2)CN1 is entered as MenB inh = -9; PV pol inh = 103; PV pol inh intensity = 106; Mtb MbtI inh = -10
O=C1NC(c2cccc(F)c2)=N/C1=C/c1cc2c(cc1Cl)OCO2 is entered as MenB inh = -89; PV pol inh = 98; PV pol inh intensity = 106; Mtb MbtI inh = 7
CCOC(=O)c1c(-n2c(C)cc(/C=C3/C(=O)NC(=O)N(CC)C3=O)c2C)sc2c1CCCC2 is entered as MenB inh = -20; PV pol inh = 90; PV pol inh intensity = 117; Mtb MbtI inh = -3

(list continues)
SMILES | MenB inh | PV pol inh | PV pol inh intensity | Mtb MbtI inh
Cc1ccc2nc(Cl)c3cc(C(=O)NC(C)CCc4ccco4)sc3c2c1 (stereo unspecified) | -8 | 103 | 99 | 19
O=C(O)c1nn(CCO)c(=O)c2ccccc12 | 8 | 98 | 103 | 6
COc1ccc(NC(=S)Nc2ccn(C)n2)c(OC)c1 | -12 | 100 | 99 | 19
CNC(=O)c1c(I)c(C(=O)NCC(=O)Nc2c(I)c(C(=O)O)c(I)c(C(=O)NCCO)c2I)c(I)c(N(C)C(C)=O)c1I | -22 | 100 | 101 | -2
COCC(C)NC(=O)c1cccc(OC)c1 (stereo unspecified) | -11 | 108 | 107 | .
Cc1ccc(NCC(=O)O)cc1 | . | 103 | 110 | -11
CC(C)(C)c1ccc(NC(=O)COC(=O)Cc2ccsc2)cc1 | . | 100 | 101 | -10
CC(C)S(=O)(=O)c1csc(NC(=O)N2CCCCC2)c1Cl | 6 | 104 | 106 | -9
O=C(/C=C/c1ccc(Br)o1)OCc1cc(=O)oc2cc3c(cc12)CCC3 | -23 | 103 | 109 | -1
CSc1ncc2c(=O)n(Cc3ccccc3)ccc2n1 | -4 | 100 | 104 | -4
CCC(=O)NC1CCC(c2ccccc2)CC1 (stereo unspecified) | -23 | 102 | 103 | -15
CC1C2CC(CC2=NNC(=O)c2cccs2)C1(C)C (stereo unspecified) | 18 | 100 | 103 | 10
Cc1nn(C(C)(C)C)c(C)c1/C=N/OC(=O)c1cccs1 | 9 | 98 | 94 | -2
O=C(Nc1ccccn1)c1ccccc1O | -6 | 103 | 100 | -1
CC1(C)CC(=O)C2=C(C1)N(Cc1ccccc1)CN(Cc1ccco1)C2 | -3 | 101 | 103 | 17
CCOC(=O)Cc1csc(NC(=O)CSc2nc3c(C)c(C)ccc3cc2C#N)n1 | 28 | 100 | 102 | 1
COc1cccc(CNn2c(-c3cccc(C)c3)nc3ccccc3c2=O)c1O | -13 | 101 | 102 | -6
COc1ccc2[nH]c(=O)c(CN(C(=O)Nc3ccccc3)C3CCCC3)cc2c1 | -20 | 101 | 103 | -9
O=C(COC(=O)Cn1cnc2ccccc2c1=O)Nc1ccc(N2CCOCC2)cc1 | -8 | 105 | 100 | -8
CS(=O)(=O)Nc1ccc(C(=O)N2CCN(c3ccccc3)CC2)cc1 | -8 | 100 | 102 | -4
CN1CCN(C(=O)C2c3ccccc3Oc3ccccc32)CC1 | 0 | 99 | 100 | 1
CCN(CC)S(=O)(=O)c1cccc(C(=O)N/N=C/c2c(C)nn(-c3ccccc3)c2N2CCCC2)c1 | -5 | 100 | 104 | 7
COc1ccc(C(=O)SC2=NC(C)CC(=O)N2)cc1OC (stereo unspecified) | -11 | . | . | 5
CN(C)c1ccnc(C(=O)O)c1 | -1 | 101 | 106 | 9
COc1ccc(CCN2C(=O)C(C(C)C)NC2=S)cc1OC (stereo unspecified) | -11 | 99 | 100 | 29

(list continues)
SMILES | MenB inh | PV pol inh | PV pol inh intensity | Mtb MbtI inh
CCN(CC)S(=O)(=O)c1cccc(C(=O)N[C@H](C(=O)NCc2ccc3c(c2)OCO3)C(C)C)c1 | 5 | 102 | 100 | 3
CCCOc1ccc(C(=O)N2CCCC2C(=O)O)cc1 (stereo unspecified) | -3 | 106 | 113 | .
NCC12CC3CC(C1)CC(CN)(C3)C2 | 9 | 108 | 106 | .
Cc1ccc(SCC2CNC(c3ccc(N(C)C)cc3)O2)cc1 (stereo unspecified) | . | 103 | 105 | 5
CCCCOc1cc(CC2CNC(=O)N2)ccc1OC (stereo unspecified) | 1 | 99&100 | 103&101 | -11
CN(C)CCc1c[nH]c2ccc(CS(=O)(=O)N3CCCC3)cc12 | -8 | 102 | 103 | -13
CCOC(=O)c1c(NC(=O)Cn2c(=O)cc(C)[nH]c2=O)sc(C(=O)NC)c1C | -16 | 103 | 102 | 31
CC(Oc1ccc(C(=O)c2ccc(F)cc2)cc1)C(=O)NC(N)=O (stereo unspecified) | 6 | 104 | 104 | 1
Cc1cc(C(=O)CSc2nnc(Cc3ccccc3)o2)c(C)n1Cc1ccc2c(c1)OCO2 | -2 | . | . | -4
O=C(O)C1CCCN(S(=O)(=O)c2ccc(Cl)cc2)C1 (stereo unspecified) | -5 | 101 | 103 | -19
CCN1C(=O)C(OC(=O)c2cscn2)CC1c1ccc(OC)cc1 (stereo unspecified) | -41 | 102 | 101 | -5
O=C(COc1cccc(Oc2ccccc2)c1)Nc1ncccn1 | 6 | 103 | 107 | 3
Cc1nc(NC(=O)CSC2=NCCS2)sc1C(=O)N(C)C | -10 | 102 | 103 | 10
Cc1nc2ccc(Cl)cc2n1CO | 5 | 99 | 99 | .
COC(=O)c1ccccc1S(=O)(=O)N1CCC(C(=O)O)CC1 | 4 | 106 | 106 | -3
COc1ccc(NC(=O)CNS(=O)(=O)/C=C/c2ccc(C)cc2)cn1 | 5 | 104 | 106 | 1
OC(c1ccccc1)(c1ccccc1)C(F)F | -9 | 98 | 102 | -16
COC(=O)c1cc(C2CC2)[nH]n1 | -15 | 102 | 107 | 8
Cc1ccc(Cn2cnc3c(nnn3Cc3ccc(C)cc3)c2=O)cc1 | -7 | 101 | 101 | 5
O=C(Nc1ccc(S(=O)(=O)N2CCOCC2)cc1)c1cnccn1 | -37 | 102 | 100 | 9
O=C(NC1CCCC1)c1cc2nc(-c3ccccc3)cc(-c3ccccc3)n2n1 | -24 | 102 | 96 | 22
C=CCn1ccn(-c2ccc(OCC)cc2)c(=O)c1=O | -32 | 104 | 101 | -1
NNC(=O)c1ncoc1-c1ccc(Cl)cc1 | -16 | 102 | 106 | 3
O=S1(=O)N=C(NNS(=O)(=O)c2ccccc2)c2ccccc21 | -8 | 102 | 102 | 0
COC(=O)c1sccc1NC(=O)CC1C(=O)NCCN1C(=O)c1ccccc1 (stereo unspecified) | -28 | 104 | 95 | 1

5 successive compounds from above, for reference:
SMILES | MenB inh | PV pol inh | PV pol inh intensity | Mtb MbtI inh
O=C(NC1CCCC1)c1cc2nc(-c3ccccc3)cc(-c3ccccc3)n2n1 | -24 | 102 | 96 | 22
C=CCn1ccn(-c2ccc(OCC)cc2)c(=O)c1=O | -32 | 104 | 101 | -1
NNC(=O)c1ncoc1-c1ccc(Cl)cc1 | -16 | 102 | 106 | 3
O=S1(=O)N=C(NNS(=O)(=O)c2ccccc2)c2ccccc21 | -8 | 102 | 102 | 0
COC(=O)c1sccc1NC(=O)CC1C(=O)NCCN1C(=O)c1ccccc1 (stereo unspecified) | -28 | 104 | 95 | 1

Part of the list above, tab-delimited:
canonical_smiles	MenB inh	PV pol inh	PV pol inh intensity	Mtb MbtI inh
O=C(O)C1CCCN(S(=O)(=O)c2ccc(Cl)cc2)C1 (stereo unspecified)	-5	101	103	-19
CCN1C(=O)C(OC(=O)c2cscn2)CC1c1ccc(OC)cc1 (stereo unspecified)	-41	102	101	-5
O=C(COc1cccc(Oc2ccccc2)c1)Nc1ncccn1	6	103	107	3
Cc1nc(NC(=O)CSC2=NCCS2)sc1C(=O)N(C)C	-10	102	103	10
Cc1nc2ccc(Cl)cc2n1CO	5	99	99	.
COC(=O)c1ccccc1S(=O)(=O)N1CCC(C(=O)O)CC1	4	106	106	-3

Additional results follow.
SMILES | MenB inh | PV pol inh | PV pol inh intensity | Mtb MbtI inh
Cc1nc2c(ccc3ccsc32)s1 | -38 | 100 | 100 | 21
O=C(NNc1nc(N2CCOCC2)nc(N2CCOCC2)n1)c1ccc(F)cc1 | 6 | 98 | 105 | -13
Cc1ccc(S(=O)(=O)N2CCN(C(=O)Cn3c(=O)oc4ccccc43)CC2)cc1 | 1 | 101 | 105 | 0
CN(Cc1cccs1)C(=O)c1ccc2c(c1)NC(=O)CS2 | -42 | . | . | 0
Cn1c(=O)oc2cc(S(=O)(=O)NCCC(=O)NC3CCCc4ccccc43)ccc21 (stereo unspecified) | -1 | 101 | 100 | -4
Cc1cc(C)c(-n2c(SCCS(=O)(=O)c3ccc(F)cc3)n[nH]c2=O)c(C)c1 | 11 | 106 | 110 | -3
CCC(C)N1C(=O)S/C(=C/c2ccc(O)c(Cl)c2)C1=O (stereo unspecified) | -170 | 101 | 103 | 9
CC(=O)Nc1ccc(S(=O)(=O)Nc2nc(CN3CCOCC3)nc3sc4c(c23)CCCC4)cc1 | 1 | 110 | 115 | -104
CC1CN(C(=O)C(C)NC(c2ccccc2)c2ccccc2)CC(C)O1 (stereo unspecified) | -41 | 105 | 101 | -4
COC(=O)c1ccc(COC(=O)c2cccn2C)o1 | -83 | 102 | 104 | -9
Brc1ccc(C2N3CCCN23)cc1 (stereo unspecified) | -25 | 101 | 100 | 2
CCc1ccc2oc(C(=O)N(Cc3ccc(N(C)C)cc3)Cc3ccco3)cc(=O)c2c1 | -8 | 103 | 100 | 31
CSCCSc1nnc(Nc2cccc(C)c2C)s1 | -4 | 108 | 120 | 15
Nc1oc2cc(O)ccc2c(=O)c1-c1nc2ccccc2s1 | -20 | 102 | 101 | -66
COC(Cn1c(=S)[nH]c2ccccc2c1=O)OC | 4 | 104 | 98 | 3

This is a random part of the collection; overall some 2% were active at least once.
